# A549 tox – A549 cytotoxicity, counter-screen for Nrf2 inhibitors. A549 ARE-Fluc cells, CellTiter-Fluor viability, 18-24 h. Potency, µM (doses to about 46 µM), for the others: at the top dose activity change, negative = cytotoxicity, usual class: inhibitors. actives 0.16% (n = 390,000). AID 504648; also: potency is read from the fitted curve at half-maximal effect; % is scaled to controls: 0 for no effect and ±100 for the full control effect
#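 Cytotoxicity counterscreen: CellTiter-Fluor fluorescence was measured in A549 ARE_Fluc cells after 18-24 h of compound exposure in a concentration series. The subsequent BugLite luminescent read reports ARE-luciferase activity.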
# IL-2 act – IL-2 activation | AID 652025 | activation, % (series mostly up to about 46 µM) | actives 0.065% (n = 360,000) | IL-2 activation reporter assay, cell-based qHTS; stimulated with anti-CD3/CD4/CD28 beads; in transgenic mouse T cells; in the data active = activation above about 50%; inconclusive = mostly about 30% to 49%; also: 0% is about no effect
#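 Using fluorescent plate cytometry, EGFP and DsRed are detected in transgenic mouse T cells stimulated 18 h at 37 degrees C with antibody-coated beads after 60 min compound pretreatment.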
# Nrf2 ARE act – activates Nrf2 signaling; actives 0.31% (n = 410,000); AREc32 ARE-luciferase reporter (MCF7-derived line), luminescence, 24 h; Potency, µM (highest dose often 46.1 µM), for inactives: at the top dose activation, most hits filed as activators; also: potency is read from the fitted curve at half-maximal effect; % of control where 0% means no effect; nearly all actives have a fitted effect of over 65% in size
#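 ARE activation measured as luciferase luminescence (Steady-Glo, 30 min RT) in AREc32_Fluc cells after 24 hr compound exposure at 37 deg C, 5% CO2; cells seeded overnight at 1000/well in OPTI-MEM, 5% FBS.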
# ATXN2 expr inh – inhibitors of ATXN2 expression | HEK-293 ATXN2-luciferase reporter, luminescence, 24 h | Potency, µM (series often up to 57 µM), inactives show top-dose activity change, negative = inhibition, actives largely listed as inhibitors | actives 0.72% (n = 360,000) | AID 1745845; also: potency is read from the fitted curve at half-maximal effect; % is scaled to controls: 0 for no effect and ±100 for the full control effect; nearly all actives have a fitted effect of over 55% in size
#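 ATXN2-luciferase reporter cells (luciferase flanked by upstream and downstream ATXN2 gene portions) were treated 24 h at 37 °C with compounds at up to 57 uM. SteadyGlo luminescence gave expression; GF-AFC fluorescence gave viability.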
# HepG2 viability – kills HepG2 cells in TGF-b inhibitor counter-screen; HepG2 CAGA-GFP viability, ATP luminescence, 18 h; Potency, µM (titrated, usually from 46.1 µM), for inactives: top-dose activity change, negative = cytotoxicity, actives largely listed as cytotoxic; actives 0.76% (n = 410,000); also: potency is read from the fitted curve at half-maximal effect; some results filed as inactive show a strong effect at the top dose
#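 CellTiter-Glo luminescence gave cytotoxicity after 18 hours at 37 degrees C. The cells were HepG2 CAGA-GFP in 1% FBS DMEM, stimulated with 500 pg/mL TGF-beta after compound addition. %Activity was normalised to no-cell wells (complete cell-killing) and DMSO (no toxicity), and curves were fitted and classified.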
# S2 tox – reduces viability in counter-screen for ATXN expression inhibitors; actives 0.49% (n = 400,000); S2 cells (HEK-293 line with an ATXN2-luciferase reporter) viability, CellTiter-Fluor protease fluorescence, 24 h; Potency, µM (highest dose often 56.7 µM), most hits filed as cytotoxic; also: potency is read from the fitted curve at half-maximal effect; nearly all actives have a fitted effect of over 40% in size
# Nrf2 inh – blocks Nrf2 signaling; A549 ARE-Fluc reporter, luciferase luminescence, 18-24 h; Potency, µM (titrated, usually from 46 µM), for the others: at the highest dose activity change, negative = inhibition, usual class: inhibitors; actives 2.1% (n = 360,000); also: potency is read from the fitted curve at half-maximal effect; % is scaled to controls: 0 for no effect and ±100 for the full control effect; nearly all actives have a fitted effect of over 60% in size
#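 Quantitative HTS in A549 cells stably bearing an antioxidant response element-firefly luciferase construct. Inhibition of Nrf2-driven transcription was scored by luminescence after 18-24 h of compound exposure at 37 °C.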
# TGFb SMAD3 inh – inhibitors of TGF-b signaling; actives 1.2% (n = 410,000); HepG2 CAGA-GFP TGF-b/SMAD3 reporter, GFP fluorescence, 18 h; TGF-beta stimulated, 500 pg/mL final; Potency, µM (doses to about 46.1 µM), for inactives: top-dose activity, negative = inhibition, hits mostly inhibitors; also: potency is read from the fitted curve at half-maximal effect; % is scaled to controls: 0 for no effect and ±100 for the full control effect; nearly all actives have a fitted effect of over 65% in size
#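 First, reporter cells (HEPG2 CAGA-GFP) rested 2 h at 37 degrees C. Next, compounds were pinned in and TGF-beta added to 500 pg/mL final. After 18 h, GFP was imaged per cell and summed per well.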
# Active calls of the source: *; i = inactive; ? = inconclusive; . = not tested or not shown. Unless noted, calls follow the shape of the dose curve; as a rule, active = well fitted curve in the direction sought with a large enough effect; inconclusive = small, poorly fitted or top-dose-only effect, or another doubt; inactive = no such curve, though single readings can be large; an effect the other way counts as inactive or inconclusive. An excerpt; rates above refer to the full screens.
SMILES,A549 tox,IL-2 act,Nrf2 ARE act,ATXN2 expr inh,HepG2 viability,S2 tox,Nrf2 inh,TGFb SMAD3 inh
Cc1[nH]c2ccccc2c1C(=O)C(=O)N1CCN(c2ccccc2Cl)CC1,1%,-1.6,-0.4%,-12%,-10%,i,-4%,-13%
C/C(=N\NC(=O)c1ccc(NS(=O)(=O)c2cccs2)cc1)c1cccs1,-2%,-2.6,-0.1%,-23%,3%,i,-23%,-7%
COc1ccc(CC(=O)OCC(=O)Nc2cc(Cl)ccc2C)cc1,5%,-0.2,-0.5%,-8%,8%,i,14%,26%
Cc1cc(S(=O)(=O)N2CCCCCC2)c(Cl)cc1Cl,-3%,-2.8,-0.9%,-7%,-28%,i,-7%,1%
O=C(O)c1cnn(-c2nc(-c3ccc(Cl)c(Cl)c3)cs2)c1C(F)(F)F,-1%,0.8,3.2%,2%,-41%,i,18%,-20%
COc1ccccc1Cc1c(-c2ccc(OC)c(OC)c2)nc2ccc(Br)cn12,.,-0.4,-0.5%,?,-2%,?,.,?
CC(=O)NS(=O)(=O)c1cccnc1Nc1cccc(Cl)c1C,-3%,1.3,0.2%,0%,9%,i,-17%,-7%
COc1ccc(/C=C/C(=O)c2ccc(Cl)cc2)c(OC)c1,14%,-0.3,?,5%,-55%,i,-1%,?
COc1ccccc1NC(=O)C(=O)N(c1cccnc1)C(C(=O)NC(C)(C)C)c1ccccc1F (stereo not drawn),-7%,0.8,-0.1%,-6%,-14%,i,-27%,-8%
O=C(O)c1cnc(-c2ccccc2)nc1Sc1ccccc1Cl,-4%,-1.3,-0.1%,-2%,-25%,?,-28%,-18%
CSc1nc(N)c(C(=O)N(c2ccccc2)c2ccccc2)s1,.,-2.7,0.5%,.,-1%,?,.,-1%
Clc1nn2cnnc2c2ccccc12,-6%,1.2,?,.,-8%,i,?,-6%
Cc1ccc(C(C)C)c2c1C(c1ccc3c(c1)OCO3)CC(=O)O2 (stereo not drawn),13%,0.9,5.3%,-18%,-29%,i,?,?
Cc1ccc(C(=O)CSc2nc(O)cc(=O)[nH]2)cc1C,-1%,0.8,3.1%,.,1%,i,7%,9%
NS(=O)(=O)c1cccc(NS(=O)(=O)c2cccc(C(F)(F)F)c2)c1,12%,-1.7,-0.4%,3%,-9%,i,4%,19%

# Whole records as entered above:
# `COc1ccccc1Cc1c(-c2ccc(OC)c(OC)c2)nc2ccc(Br)cn12` is entered as A549 tox = .; IL-2 act = -0.4; Nrf2 ARE act = -0.5%; ATXN2 expr inh = ?; HepG2 viability = -2%; S2 tox = ?; Nrf2 inh = .; TGFb SMAD3 inh = ?
# `CSc1nc(N)c(C(=O)N(c2ccccc2)c2ccccc2)s1` is entered as A549 tox = .; IL-2 act = -2.7; Nrf2 ARE act = 0.5%; ATXN2 expr inh = .; HepG2 viability = -1%; S2 tox = ?; Nrf2 inh = .; TGFb SMAD3 inh = -1%

# (next part)
SMILES,A549 tox,IL-2 act,Nrf2 ARE act,ATXN2 expr inh,HepG2 viability,S2 tox,Nrf2 inh,TGFb SMAD3 inh
Cc1ccc(S(=O)(=O)N=C2SCCCS2)cc1,-3%,-0.4,13%,2%,-7%,i,19%,0%
N#Cc1ncn(-c2ccc(Oc3ccccc3)cc2)c1N,-1%,0.2,-2.0%,7%,-5%,i,-4%,-1%
CCN1CCCC1CNC(=O)c1cc(S(=O)(=O)N(C)C)ccc1Cl (stereo not drawn),1%,-0.2,2.4%,4%,4%,i,5%,12%
Cc1ccc(S(=O)(=O)N2[C@@H](c3cccc(C)c3)C(C(=O)O)=C[C@H]2C(C)(C)C)cc1,-3%,0.3,-0.4%,11%,-17%,i,?,-13%
O=C(/C=C/NNC(=O)c1cccc(Br)c1)c1ccccc1,0%,0.4,28%,-2%,12%,i,-5%,5%
COc1ccc(N2C(=O)[C@H]3CCC=C[C@H]3[C@@H]2c2ccccc2Br)cc1,-1%,-0.6,-0.7%,-20%,-34%,?,-24%,?
O=C(NCc1ccco1)C1(S(=O)(=O)c2ccccc2)CC=CC1,-1%,-0.1,-0.8%,4%,0%,i,5%,-6%
COc1ccc(C2/C(=C(/O)c3ccc(F)cc3)C(=O)C(=O)N2CCCN2CCOCC2)cc1OC (stereo not drawn),1%,1.5,-0.1%,.,-9%,i,2%,-3%
CCOc1ccccc1NC(=O)CSc1nnc(C2CC2)n1CC,-8%,-0.6,-0.3%,-2%,7%,i,0%,-11%
Cc1cc(OCc2nc(-c3ccc(NC(=O)c4cccnc4)cc3)no2)ccc1Cl,1%,1.6,-0.3%,-18%,2%,i,?,10%
CN1CCN(c2oc(/C=C/c3ccccc3)nc2C#N)CC1,-6%,0.3,-1.6%,22%,3%,i,-2%,?
COc1ccc(C(=O)C=CNNC(=O)c2ccc(Cl)cc2)cc1,-17%,-1.9,14%,?,-31%,?,?,13µM*
CCCCNC(=O)c1nc(C2CCN(S(=O)(=O)c3ccc(F)c(F)c3)CC2)oc1-c1ccccc1,.,-0.2,-0.3%,10%,0%,i,.,-3%
COc1ccccc1NC(=O)C1=C(C)Nc2nnnn2C1c1cccc(C)c1 (stereo not drawn),-4%,1.4,6.4%,-30%,-13%,i,-3%,14%
CC[C@@H]1C=C(C(=O)O)[C@H](c2cccc(C)c2)N1S(=O)(=O)c1ccc(C)cc1,6%,-0.3,-0.5%,10%,-2%,i,3%,-14%
Cc1ccc(C(=O)C=CNNC(=O)c2ccccc2)cc1,-4%,0.5,7.7%,.,-50%,?,-1%,?
COc1ccc(-c2nnc(SCCC(=O)O)n2C)cc1OC,0%,-1.4,0.2%,-8%,0%,i,9%,-20%

# Entries listed above that bear a hit mark in TGFb SMAD3 inh.
SMILES | IL-2 act | Nrf2 inh | TGFb SMAD3 inh
COc1ccc(C(=O)C=CNNC(=O)c2ccc(Cl)cc2)cc1 | -1.9 | ? | 13µM*

# Screens (PubChem BioAssay)
